High-throughput results (PubChem BioAssay)
VACV Venus inh: vaccinia inhibition (Venus reporter); Vaccinia virus Venus reporter expression, fluorescence; Potency, µM (doses to about 36.5 µM), for the others: at the top dose activity change, negative = inhibition, usual class: inhibitors; 0.46% of 330,000 active; active means well fitted inhibition curve with a large enough effect; inconclusive means small, poorly fitted or top-dose-only effect; inactive means no such curve, though single readings can be large or run the other way; tested in A549 cells; also: nearly all actives have a fitted effect of over 30% in size; inactives centre near -10
Vaccinia mCherry: inhibitors of vaccinia virus infection (mCherry reporter signal); Vaccinia virus mCherry reporter infection, fluorescence; about a quarter of the inactives have no number; Potency, µM (series often up to 36.5 µM), for inactives: at the highest dose activity change, negative = inhibition, hits mostly inhibitors; 0.63% of 310,000 active; AID 720579; active = well fitted inhibition curve with a large enough effect; inconclusive = small, poorly fitted or top-dose-only effect; inactive = no such curve, though single readings can be large or run the other way; tested in A549 cells; also: nearly all actives have a fitted effect of over 35% in size; inactives centre near -10
Starred values were filed as active, the others as inactive; i = inactive; u = inconclusive; x = not tested or not shown; [ ] = another dose, or the depositor's remark. % is scaled to controls: 0 for no effect and ±100 for the full control effect; potency is read from the fitted curve at half-maximal effect.

structure	VACV Venus inh	Vaccinia mCherry
COc1ccc(S(=O)(=O)Nc2cc3c4c(c2)CC(=O)N4CCC3)cc1C	-18.2%	-0.4%
Cc1ccc(S(=O)(=O)NCCN=Cc2ccc(N(C)C)cc2)cc1	-18.7%	i
COc1ccccc1OCC(=O)Sc1ccc(C)cc1	-3.3%	-11.5%
CN(C)CCNC(=O)c1ccc(Cl)c2cc3ccccc3nc12	4.47µM*	1.78µM*
O=c1oc2ccccc2cc1-c1cn2ccccc2n1	u	-6.7%
Cc1cc(C)cc(NC(=S)NCc2ccc3[nH]c4c(c3c2)CCCC4)c1	-4.9%	u
CCCc1cc(-c2nc(-c3ccc(Br)cc3)cs2)ccn1	7.6%	-11.7%
CC(C)(C)NC(=O)NC(=O)Cn1ccsc1=N	-7.1%	-10.2%
COc1cc(C2c3c(oc4ccc(C)cc4c3=O)C(=O)N2Cc2ccc(F)cc2)ccc1O (centres undefined)	-8.4%	-11.2%
CCCCCCCCN1C(=O)[C@H](CC(=O)NCC23CC4CC(CC(C4)C2)C3)C[C@@]2(C(=O)OCC)CCCC=C12	-4.9%	i
COc1cccc2cc(-c3cc(=O)oc4ccc(OC(=O)N(C)C)cc34)oc12	-3.1%	i
CN(c1cccc(NC(=O)CCSc2ccccc2)c1)S(C)(=O)=O	-15.1%	-9.1%

structure	VACV Venus inh	Vaccinia mCherry
CN(CCc1ccccn1)C(=O)Nc1cc(Cl)cc(Cl)c1	-16.6%	-21.0%
Cc1ccc(C(C)C)c(OCC(=O)NNC(=O)CC2OC(=O)c3ccccc32)c1 (centres undefined)	-12.1%	-12.3%
COCCNC(=S)N1Cc2ccccc2-n2nncc2C1	-13.4%	-3.0%
COc1cc(-c2cc(C(=O)Nc3cc(S(=O)(=O)N4CCOCC4)ccc3C)c3ccccc3n2)cc(OC)c1OC	-13.8%	30.4%[activator]
CC(C)(O)[C@H](O)Cc1cc2ccc(=O)oc2cc1O[C@@H]1O[C@H](CO)[C@@H](O)[C@H](O)[C@H]1O	-9.6%	i
O=C1c2ccccc2C(=O)N1CC1=NCCc2ccccc21	-9.8%	-12.5%
CCCCN(CC(=O)Nc1cccc(S(=O)(=O)N2CCCC2)c1)Cc1nc2ccccc2c(=O)[nH]1	-18.5%	u
COC(=O)[C@@H]1C(OC(=O)c2ccccc2)CC2CCC1N2C (some centres undefined)	-9.8%	-3.5%
O=C(CCN1C(=O)c2ccccc2S1(=O)=O)Nc1ccccc1F	11.6%	3.6%
COc1cc(NC(=O)c2nnn(Cc3ccc(F)cc3)c2N)cc(OC)c1	-13.3%	-17.9%
COc1ccccc1NC(=O)C1=C(C)Nc2ncnn2C1c1cccn1C (centres undefined)	-2.8%	-4.4%
Cc1ccccc1C(=O)Nn1cnc2ccccc2c1=O	-10.6%	-11.6%

structure	VACV Venus inh	Vaccinia mCherry
O=C(Nc1ccc(Br)cc1C(=O)c1ccccc1Cl)c1ccccc1F	-9.2%	i
CCN(CC)CCCN(C(=O)c1ccco1)c1nc(-c2ccc(C)cc2)cs1	-4.8%	u
Cc1ccc(N(CC(=O)NCc2ccco2)C(=O)CCC(=O)Nc2ccccn2)cc1C	u	x
Cc1cn(C)c(CC(=O)N2CCN(c3ccc(F)cc3)CC2)c1C(=O)O	-3.0%	-9.3%
Cc1occc1C(=O)N1CCCC(CCC(=O)NCc2ccc(F)c(F)c2)C1 (centres undefined)	-12.6%	i
CCN(CC)S(=O)(=O)c1ccc(/C=C/C(=O)Nc2ccc(F)c(F)c2F)cc1	-13.7%	-20.2%
CN1C(=O)c2oc3ccccc3c(=O)c2C1c1cccnc1 (centres undefined)	-16.3%	-13.9%
O=C(CCNS(=O)(=O)c1ccc(Br)cc1)NCc1ccco1	-11.1%	-11.1%
COc1cccc(CNC(=O)Cn2cccc2C(=O)c2ccccc2)c1	-7.9%	-17.3%
COc1ccc(C(C(=O)NCc2ccccc2)N(Cc2ccco2)C(=O)c2snc(C(N)=O)c2N)cc1OC (centres undefined)	-4.2%	-1.2%
CCCN(CCC)C(=O)C(Cc1ccccc1)NS(=O)(=O)c1ccc2c(c1)c(=O)n(C)c(=O)n2C (centres undefined)	0.0%	-3.6%
CCCN(C(=O)COC(=O)CNC(=O)c1ccc2ccccc2c1)c1c(N)n(Cc2ccccc2)c(=O)[nH]c1=O	6.5%	-12.1%

structure	VACV Venus inh	Vaccinia mCherry
Cc1ccc(NC(=O)C(C)N2C(=O)c3ccccc3C2=O)nc1 (centres undefined)	-5.5%	i
CCOc1ccc(CCNC(=O)CCCc2nnc3n(CC)c(=O)c4sccc4n23)cc1OCC	1.5%	-7.8%
CSCC[C@H](NC(=O)[C@H](Cc1ccccc1)n1c(=O)[nH]c2ccccc2c1=O)C(=O)N1CCC[C@@H]1C(=O)O	4.7%	5.6%
CN(C)S(=O)(=O)c1ccc2c(c1)N(CC(=O)N1CCCCC1)CCS2	7.1%	0.7%
N#Cc1cn(-c2ccccc2)nc1-c1ccc2c(c1)OCCO2	-4.7%	-13.8%
O=S(=O)(c1ccc(Cl)cc1)n1c(Cc2ccccc2)nc2ccccc21	-8.8%	i
Cc1cccc(NC(=S)NCCC(C)C)c1	-4.9%	-13.7%
O=C(COc1ccccc1F)NCc1nc2ccccc2[nH]1	-5.4%	i
CCCCn1nc(C(=O)NC2=NCCS2)c2ccccc2c1=O	-11.8%	i
O=C1C(NS(=O)(=O)c2ccccc2)=C(N2CCN(c3ccc(F)cc3)CC2)C(=O)c2ccccc21	u	0.316µM*
NC(=O)CC[C@@H]1NC(=O)[C@H](CO)NC(=O)c2cc([N+](=O)[O-])cc(I)c2NCC[C@@H](C(N)=O)NC1=O	-13.5%	-9.8%
Cc1c(Cl)cccc1Nc1sc(C(=O)c2ccccc2)c(N)c1S(=O)(=O)c1ccccc1	-9.7%	-5.2%

structure	VACV Venus inh	Vaccinia mCherry
O=C(NCCc1ccc(Cl)cc1)C(=O)NCC(c1ccco1)S(=O)(=O)c1ccc(Cl)cc1 (centres undefined)	u	u
CCOc1ccc(/C=C2\SC(N3CCc4ccccc4C3)=NC2=O)cc1	-21.8%	u
C(=N\Nc1nncc2ccccc12)/c1ccccn1	u	10µM*
COc1ccc(C(=O)NNC(=O)c2ccc(S(=O)(=O)N3CCOCC3)cc2)cc1	-3.2%	-4.3%
O=C1NC(=S)NC1=Cc1ccc(O)cc1	7.4%	u
O=[N+]([O-])c1cc(CSC2=NCCN2)ccc1O	-13.9%	-2.3%
O=C(NCc1ccco1)C(c1ccccc1)N(Cc1cccnc1)C(=O)Cn1nnc2ccccc21 (centres undefined)	-9.8%	x
COc1cc(OC)c(OC)cc1C=NCC1(c2ccccc2)CCCC1	1.7%	i
CCc1cccc(-n2c(=O)c3cccnc3n2CC(=O)NCc2ccccc2)c1	-7.5%[7.34 µM]	-7.3%[7.34 µM]
O=C(CCn1cccn1)N1CCCC(N2CCN(c3cccc(C(F)(F)F)c3)CC2)C1 (centres undefined)	-11.9%	-1.3%
CCCCCC(=O)N(Cc1ccccc1)c1c(N)n(CCOC)c(=O)[nH]c1=O	-8.9%	-14.0%
Cc1nc2ccc(NC(=O)c3ccc(Cl)s3)cc2s1	-0.1%	37.4%[activator]

structure	VACV Venus inh	Vaccinia mCherry
COCCCNC(=O)C1CCCN(C(=O)c2cnn(-c3ccc(F)cc3)c2-n2cccc2)C1 (centres undefined)	10.3%	0.7%
COc1ccc(Cc2nc3ccc(C(=O)NCCc4ccccn4)cc3o2)cc1OC	-18.2%	-17.3%
O=C(NCc1ccccc1Cl)C1CCN(c2ncnc3c2nc2n3CCCCC2)CC1	-13.0%	i
Cc1noc(C)c1S(=O)(=O)Nc1ccccc1N1CCOCC1	-4.7%	-8.2%
Cc1ccc(NC(=O)CCC(=O)NNC(=O)C(c2ccccc2)c2ccccc2)c(C)c1	-11.3%	-14.9%
O=C(c1ccc([N+](=O)[O-])cc1)N1CCN(c2ccc(Nc3ccccc3)nn2)CC1	-8.2%	-5.5%
CC(C)=CC(=O)O[C@@H]1Cc2c(ccc3ccc(=O)oc23)OC1(C)C	-20.0%	-4.9%
CC1CN(C(=O)CCC(=O)NCc2ccccc2)c2ccccc2S1 (centres undefined)	-11.5%	-8.8%
O=C(NCc1ccc(C(F)(F)F)cc1)c1ccc(-c2ccc(F)c(F)c2)c2ccoc12	-4.7%	i
Cc1ccc(CCNc2ccc3ccccc3c2)cn1	5.9%	-11.4%[1.46 µM]
CCn1cc(CNC(=O)c2cc(Cl)ccc2OC)c(C)n1	-9.7%	x
CC(C)CN(C(=O)c1ccc(S(=O)(=O)N2CCCCC2)cc1)C1CCS(=O)(=O)C1 (centres undefined)	-5.7%	-9.7%

structure	VACV Venus inh	Vaccinia mCherry
CC(C(=O)NCc1cccnc1)N1C(=O)c2ccccc2C1=O (centres undefined)	-11.5%	x
CN1NC(=O)CC1c1ccccc1 (centres undefined)	3.9%	-18.9%
CCc1ccc(N2CC(C(=O)Nc3cccc(S(=O)(=O)N4CCCC4)c3)CC2=O)cc1 (centres undefined)	u	-20.8%
C=CCn1c(SCC(=O)Nc2cccc(C(=O)OC)c2)nnc1C(C)NC(=O)c1cccs1 (centres undefined)	-6.8%	-15.0%
Cc1ccc(C(=O)Nc2cc([N+](=O)[O-])ccc2C)cc1	2.2%	-10.6%
COC(=O)c1cccc(NC(=O)CCCOc2cccc(C)c2)c1	-7.4%	x
CCc1ccc(C(=O)COC(=O)c2n[nH]c3ccccc23)cc1	-10.6%	-4.3%
Cc1ccc(S(=O)(=O)N2CCC(C(=O)N3Cc4ccccc4C3)CC2)cc1	-11.0%	i
CN(C)CCCN(C(=O)c1cc(-c2cccs2)nc2ccccc12)c1nc2c(F)cccc2s1	-28.0%	u
O=C(CSc1nnc(-c2ccc(O)cc2)o1)Nc1ccccc1Br	-7.0%	u
C=CCN1C=C2C(=O)C(C)(OC(=O)c3ccc(OC)cc3)C(=O)C(c3ccco3)=C2C=C1CCCC (centres undefined)	-20.2%	u
CCC1C(=O)N(C)CCc2ccccc21 (centres undefined)	-11.1%	-10.5%

Single records, from the list above. Values in the order: VACV Venus inh, Vaccinia mCherry
Results for `Cc1cn(C)c(CC(=O)N2CCN(c3ccc(F)cc3)CC2)c1C(=O)O` = -3.0%, -9.3%
Results for `Cc1nc2ccc(NC(=O)c3ccc(Cl)s3)cc2s1` = -0.1%, 37.4%[activator]
Results for `CC1CN(C(=O)CCC(=O)NCc2ccccc2)c2ccccc2S1` (centres undefined) = -11.5%, -8.8%
Results for `O=C(Nc1ccc(Br)cc1C(=O)c1ccccc1Cl)c1ccccc1F` = -9.2%, i

(cont.)
structure	VACV Venus inh	Vaccinia mCherry
O=C(Nc1ccccc1-c1nc2ccccc2s1)C1=COCCO1	-13.9%	-10.1%
O=C(/C(=C(\[O-])c1ccccc1)[n+]1ccc2ccccc2c1)c1ccc(Cl)cc1	1.2%	-8.9%
COCC(=O)Nc1cc(C(=O)N2CCCCC2c2nccn2C)cc2nc(-c3ccccc3)n(C)c12 (centres undefined)	-23.8%	-25.2%
O=C(O)C1CCCCC1C(=O)NC1C2CC3CC(C2)CC1C3 (centres undefined)	-1.8%	-21.7%
C[C@@H]1COC(=O)[C@H](Cc2ccc(F)cc2)CC/C=C\C[C@@H](CC(=O)NCCO)C(=O)N1	-3.9%	i
CC(C)(C)OC(=O)N1CCC(c2c(C(=O)NCC3CCN(C4CCCC4)C3)cnn2-c2ccc(F)cc2)CC1 (centres undefined)	-25.2%	-9.8%
Cc1cc(-n2c(C)cc(C(=O)CN3C(=O)NC4(CCCC4)C3=O)c2C)no1	-14.1%	-23.4%
C[C@@H]1C(=O)O[C@@H]2[C@H](O)C34[C@H]5C[C@@H](C(C)(C)C)C36[C@H](OC(=O)[C@@H]6O)OC4(C(=O)O5)[C@@]12O (some centres undefined)	-16.6%	i
Cc1c(NC(=O)COC(=O)c2cc3c4ccccc4n(C)c3s2)c(=O)n(-c2ccccc2)n1C	-29.0%	u
CC(=NNC(=O)CSc1nc2ccccc2o1)c1ccco1	-0.5%	-9.7%
O=C(N/N=C/c1ccccc1)c1n[nH]c2c1CCCC2	u	u
CCC(=O)N1CCc2cc(Br)cc(S(=O)(=O)NCC3CCCN3CC)c21 (centres undefined)	-15.6%	-8.4%

structure	VACV Venus inh	Vaccinia mCherry
CCCCc1nc2ccccc2c(=O)n1NC(=O)c1c(O)c2cccc3c2n(c1=O)CC3	-0.8%	x
N#Cc1ccccc1NC(=O)c1ccc2c(Cl)c3c(nc2c1)CCCC3	-16.1%	i
O=C(NCCCn1ccnc1)c1cc(S(=O)(=O)N2CCOCC2)c(Cl)cc1Cl	-8.6%	i
Cc1cccc(NC(=O)Cn2c(=O)c3cccn3c3ccccc32)c1C	-3.6%	-7.6%
CCOC(=O)CCc1c(C)c2cc3c(c(C)c2oc1=O)OCN(CCc1ccccc1OC)C3	-12.2%	-2.6%
NC1=NC(c2cccnc2)n2c(nc3ccccc32)N1 (centres undefined)	-12.8%	-28.1%
Cc1cccc(S(=O)(=O)CC(=O)Nc2nc(-c3ccccc3)cs2)c1	2.2%	x
COc1ccc([C@H]2CC(=O)C=C(c3ccc(Cl)c(Cl)c3)C2)cc1	-20.3%	i
COCc1cc(C)n(CC(=O)Nc2ccc3c(c2)OCO3)c(=O)c1C#N	-15.9%	-10.2%
O=C(NCCc1ccccn1)C1CC12CCN(C(=O)c1ccccc1Cl)CC2 (centres undefined)	-20.1%	-1.1%
